Screening results deposited in PubChem BioAssay by Broad Institute.
Env fusion inh: inhibitors of HIV-1 Env-driven cell-cell fusion, primary screen, HeLa-JRFL effector, CEM21 target cells, luciferase; 360,000 tested, 1.1% active; AID 651610, 2012; inhibition, % at 12.3 µM;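 active = mean replicate inhibition score of at least 50 and every replicate individually at or above 50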;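 note: 0% = plate neutral controls and 100% = maraviroc near 300 nM; one replicate is shown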
Yeast UUG start: modulators of yeast start codon fidelity, primary screen, whole organism, S. cerevisiae, single point, plate reader; S. cerevisiae UUG-firefly luciferase reporter, luminescence/redox ratio; activity score, % at 18.7 µM; 350,000 tested, 0.13% active; AID 602363, 2012;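 active = replicate mean at a twofold rise or more, about +100% in these data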;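 note: firefly luciferase made from a UUG start codon reports start codon fidelity; reporter light over untreated wells divided by growth signal over untreated wells; some hits fall short of that in this replicate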
Starred values were filed as active, the others as inactive; & = joins results of further samples; [ ] = another dose, or the depositor's remark.

Env fusion inh	Yeast UUG start	Molecule
-7.1[16.7 µM]	-6.0	COc1ccc(-c2ccc([C@@H]3[C@@H](CO)N(C(=O)c4cccnc4)[C@H]3C#N)cc2)cc1
-7.0[16.7 µM]	4.5	Cc1noc(C)c1NC(=O)Nc1ccc2c(c1)CC(=O)N([C@@H](C)CO)C[C@@H](C)[C@H](CN(C)Cc1ccc(C(=O)Nc3ccccc3N)cc1)O2
-4.0[16.7 µM]	1.4	C[C@@H]1CN([C@@H](C)CO)C(=O)c2cccc(NS(=O)(=O)c3ccccc3)c2O[C@@H]1CN(C)C(=O)Nc1cccc2ccccc12
9.8[16.7 µM]	-8.6	C[C@H](CO)N1C[C@H](C)[C@H](CN(C)C(=O)c2cccc(F)c2)Oc2cc(-c3cncnc3)ccc2S1(=O)=O
28.3[16.7 µM]	-6.1	CC(C)CC#Cc1cnc2c(c1)C(=O)N([C@H](C)CO)C[C@@H](C)[C@@H](CN(C)Cc1ccccc1F)O2
22.8[16.7 µM]	-7.9	C[C@@H]1CCCCO[C@H](CN(C)S(=O)(=O)c2ccc(Cl)cc2)[C@H](C)CN([C@H](C)CO)C(=O)c2cc(N(C)C)ccc2O1
-11.5[16.7 µM]	-3.0	C[C@H]1CN([C@@H](C)CO)C(=O)c2cc(-c3ccncc3)cnc2O[C@@H]1CN(C)C(=O)Nc1ccc2c(c1)OCO2
17.3[16.7 µM]	-5.4	C[C@H]1CN([C@@H](C)CO)C(=O)Cc2cc(NC(=O)CCCCCC(=O)Nc3ccccc3N)ccc2O[C@H]1CN(C)C(=O)NC1CCCCC1
-8.1[16.7 µM]	5.9	C[C@@H]1CCCCO[C@@H](CN(C)C(=O)C2CCCCC2)[C@@H](C)CN([C@@H](C)CO)C(=O)c2cc(NC(=O)C3CCCCC3)ccc2O1
-55.9[16.7 µM]	1.2	Cc1ccc(S(=O)(=O)N(C)C[C@H]2OCCCC[C@@H](C)Oc3ccc(NC(=O)Nc4c(C)noc4C)cc3C(=O)N([C@@H](C)CO)C[C@H]2C)cc1
0.3[16.7 µM]	10.3	COc1ccc(S(=O)(=O)Nc2ccc3c(c2)C(=O)N([C@@H](C)CO)C[C@H](C)[C@H](CN(C)S(=O)(=O)c2cccs2)O3)cc1
-37.7[16.7 µM]	-14.2	C[C@H](CO)N1C[C@H](C)[C@@H](CN(C)C(=O)Nc2ccc3c(c2)OCO3)Oc2cc(C3=CCCC3)ccc2S1(=O)=O

Compounds above containing fluorine, in the order listed:
Env fusion inh	Yeast UUG start	Molecule
9.8[16.7 µM]	-8.6	C[C@H](CO)N1C[C@H](C)[C@H](CN(C)C(=O)c2cccc(F)c2)Oc2cc(-c3cncnc3)ccc2S1(=O)=O
28.3[16.7 µM]	-6.1	CC(C)CC#Cc1cnc2c(c1)C(=O)N([C@H](C)CO)C[C@@H](C)[C@@H](CN(C)Cc1ccccc1F)O2

Other results:
Env fusion inh	Yeast UUG start	Molecule
-16.8[16.7 µM]	-10.4	C[C@@H]1CN([C@H](C)CO)C(=O)c2cc(NC(=O)Cn3cnnn3)ccc2O[C@@H]1CN(C)Cc1ccccc1
9.0[16.7 µM]	-1.1	C[C@H](O)C#Cc1cnc2c(c1)C(=O)N([C@@H](C)CO)C[C@@H](C)[C@H](CN(C)C(=O)CN1CCOCC1)O2
11.0[16.7 µM]	0.3	C[C@H](CO)N1C[C@H](C)[C@@H](CN(C)CC2CC2)Oc2ccc(NC(=O)Cc3ccccc3)cc2CC1=O
12.7[16.7 µM]	-7.7	COc1ccc(CN(C)C[C@H]2Oc3c(NC(=O)Nc4ccccc4)cccc3C(=O)N([C@H](C)CO)C[C@H]2C)cc1
14.1[16.7 µM]	-12.7	CO[C@@H]1CN(C)C(=O)c2ccc(NS(C)(=O)=O)cc2OC[C@H](C)N(C(=O)C2CCOCC2)C[C@H]1C
11.5[16.7 µM]	5.6	COc1ccc(S(=O)(=O)Nc2ccc3c(c2)CC(=O)N([C@H](C)CO)C[C@@H](C)[C@@H](CN(C)Cc2ccc(C(F)(F)F)cc2)O3)cc1
23.1[16.7 µM]	17.8	C[C@H](CO)N1C[C@H](C)[C@H](CN(C)C(=O)NC2CCCCC2)Oc2ccc(NC(=O)Nc3cccc4ccccc34)cc2C1=O
-21.8[16.7 µM]	-5.1	Cc1noc(C)c1S(=O)(=O)N(C)C[C@@H]1OCCCC[C@@H](C)Oc2ccc(NC(=O)CCC(F)(F)F)cc2C(=O)N([C@H](C)CO)C[C@H]1C
-47.9[16.7 µM]	2.5	C[C@@H]1CCCCO[C@@H](CN(C)C(=O)CCC(F)(F)F)[C@@H](C)CN([C@H](C)CO)C(=O)c2cc(NC(=O)c3ccccc3)ccc2O1
6.8[16.7 µM]	7.9	C[C@H]1CCCCO[C@H](CN(C)Cc2ccc(C(=O)O)cc2)[C@@H](C)CN([C@@H](C)CO)C(=O)c2cc(NS(=O)(=O)c3ccc(F)cc3)ccc2O1
-20.6[16.7 µM]	11.6	CC(=O)N(C)C[C@H]1Oc2cc(-c3cccc(C#N)c3)ccc2S(=O)(=O)N([C@@H](C)CO)C[C@@H]1C
-3.7[16.7 µM]	-8.6	COCC#Cc1cnc2c(c1)C(=O)N([C@H](C)CO)C[C@@H](C)[C@H](CN(C)C(=O)C1CCOCC1)O2
-2.5[16.7 µM]	-7.7	C[C@@H]1CN([C@@H](C)CO)C(=O)Cc2cc(NC(=O)CCC(F)(F)F)ccc2O[C@@H]1CN(C)Cc1ccccc1
-6.1[16.7 µM]	11.9	C[C@@H]1CCCCO[C@@H](CN(C)Cc2ccc(C(=O)O)cc2)[C@H](C)CN([C@H](C)CO)C(=O)c2cc(NS(=O)(=O)c3cccs3)ccc2O1
2.5[16.7 µM]	-3.1	COc1ccc(S(=O)(=O)Nc2ccc3c(c2)CC(=O)N([C@H](C)CO)C[C@@H](C)[C@H](CN(C)C(=O)Nc2ccc(C(F)(F)F)cc2)O3)cc1
-28.3&5.2[16.7 µM]	3.2	C[C@@H]1CCCCO[C@H](CN(C)Cc2ccc3c(c2)OCO3)[C@H](C)CN([C@H](C)CO)C(=O)c2cc(N(C)C)ccc2O1
-9.5[16.7 µM]	8.0	C[C@@H]1CCCCO[C@H](CN(C)C)[C@@H](C)CN([C@H](C)CO)C(=O)c2cc(NC(=O)NC3CCCCC3)ccc2O1
-7.0[16.7 µM]	17.8	C[C@@H]1CN([C@@H](C)CO)C(=O)c2cc(NC(=O)Nc3ccccc3)ccc2O[C@@H](C)CCCCO[C@@H]1CN(C)C(=O)c1ccccc1
-34.9[16.7 µM]	-12.8	CN(C)C(=O)C[C@@H]1CC[C@H](NC(=O)c2ccc(F)cc2)[C@H](CO)O1
61.3*[16.7 µM]	-12.4	C[C@H]1CCCCO[C@@H](CN(C)C(=O)Nc2ccc(C(F)(F)F)cc2)[C@@H](C)CN([C@@H](C)CO)C(=O)c2cc(NS(=O)(=O)c3ccc(F)cc3)ccc2O1
1.9[16.7 µM]	2.4	CCC(=O)Nc1ccc2c(c1)C(=O)N(C)[C@H]1CC[C@@H](CC(=O)N3CCc4ccccc4C3)O[C@H]1CO2
13.7[16.7 µM]	20.0	C[C@H](CO)N1C[C@H](C)[C@@H](CN(C)Cc2ccc(C(=O)Nc3ccccc3N)cc2)Oc2ccc(NC(=O)C3CC3)cc2CC1=O
22.9[16.7 µM]	-9.5	C[C@H]1CCCCO[C@H](CN(C)C(=O)Nc2cccc3ccccc23)[C@@H](C)CN([C@@H](C)CO)C(=O)c2cc(NC(=O)Nc3cccc4ccccc34)ccc2O1
-4.1[16.7 µM]	-5.9	COCC#Cc1cnc2c(c1)C(=O)N([C@@H](C)CO)C[C@@H](C)[C@@H](CN(C)C(=O)CN1CCOCC1)O2
-5.7[16.7 µM]	0.9	C[C@H](CO)N1C[C@H](C)[C@@H](CN(C)CC2CCCCC2)Oc2ccc(NS(=O)(=O)c3ccccc3)cc2C1=O
0.4[16.7 µM]	-14.3	COc1ccc(S(=O)(=O)N(C)C[C@@H]2Oc3ccc(NC(=O)Nc4cccc5ccccc45)cc3C(=O)N([C@H](C)CO)C[C@@H]2C)cc1
-6.4[16.7 µM]	-1.2	C[C@H]1CN([C@@H](C)CO)C(=O)c2cc(C#CCN(C)C)cnc2O[C@@H]1CN(C)C(=O)c1ccc2c(c1)OCO2
-4.6[16.7 µM]	4.8	Cc1ccc(S(=O)(=O)N(C)C[C@H]2Oc3ccc(NC(=O)NC(C)C)cc3C(=O)N([C@@H](C)CO)C[C@H]2C)cc1
-0.8[16.7 µM]	6.5	C[C@@H]1CCCCO[C@H](CN(C)Cc2ccc(C(=O)O)cc2)[C@@H](C)CN([C@@H](C)CO)C(=O)c2cc(NC(=O)C3CCCCC3)ccc2O1
1.8[16.7 µM]	10.2	CCNC(=O)C[C@H]1CC[C@@H]2[C@H](COc3ccc(NC(=O)c4cc(C)on4)cc3C(=O)N2C)O1
-4.4[16.7 µM]	12.8	COc1ccc(S(=O)(=O)N(C)C[C@@H]2Oc3ccc(NS(C)(=O)=O)cc3CC(=O)N([C@@H](C)CO)C[C@@H]2C)cc1
51.7[16.7 µM]	-5.2	CC(C)CC#Cc1ccc2c(c1)O[C@H](CN(C)C(=O)Cc1ccccc1)[C@H](C)CN([C@@H](C)CO)S2(=O)=O
33.9[16.7 µM]	13.7	C[C@@H]1CN([C@H](C)CO)C(=O)c2cc(NS(=O)(=O)c3ccccc3)ccc2O[C@@H](C)CCCCO[C@H]1CN(C)Cc1ccc(Cl)c(Cl)c1
6.1[16.7 µM]	7.1	O=C(C1=C[C@H](c2ccc(C(F)(F)F)cc2)C[C@H](OCCCCO)O1)N1CCCCCCC1
4.7[16.7 µM]	2.0	O=C(C[C@@H]1C=C[C@H](NC(=O)CCN2CCCCC2)[C@@H](CO)O1)Nc1ccc(-c2ccccc2)cc1
-3.3[16.7 µM]	15.3	C[C@H]1CN([C@@H](C)CO)C(=O)c2cc(C#CC3CC3)cnc2O[C@H]1CN(C)C(=O)Nc1ccc(F)cc1

Single records, from the list above. Values in the order: Env fusion inh, Yeast UUG start
Profile of `O=C(C1=C[C@H](c2ccc(C(F)(F)F)cc2)C[C@H](OCCCCO)O1)N1CCCCCCC1` → 6.1[16.7 µM], 7.1
Profile of `CC(C)CC#Cc1ccc2c(c1)O[C@H](CN(C)C(=O)Cc1ccccc1)[C@H](C)CN([C@@H](C)CO)S2(=O)=O` → 51.7[16.7 µM], -5.2
Profile of `CCNC(=O)C[C@H]1CC[C@@H]2[C@H](COc3ccc(NC(=O)c4cc(C)on4)cc3C(=O)N2C)O1` → 1.8[16.7 µM], 10.2

Continuation:
Env fusion inh	Yeast UUG start	Molecule
-0.6[16.7 µM]	-9.8	CCC(=O)Nc1ccc2c(c1)C(=O)N(C)[C@@H]1CC[C@H](CC(=O)N[C@H](C)c3ccccc3)O[C@@H]1CO2
-14.4[16.7 µM]	-13.5	COc1ccc(S(=O)(=O)N(C)C[C@H]2Oc3ccc(NC(=O)Nc4ccc5c(c4)OCO5)cc3C(=O)N([C@@H](C)CO)C[C@H]2C)cc1
-4.9[16.7 µM]	0.3	Cc1noc(C)c1NC(=O)NCC[C@H]1CC[C@@H](NC(=O)c2ccncc2)[C@@H](CO)O1
-10.3[16.7 µM]	8.2	CO[C@@H]1CN(C)C(=O)c2cc(NC(=O)c3ccccc3)ccc2OC[C@@H](C)N(C(=O)C2CC2)C[C@H]1C
-3.1[16.7 µM]	-7.2	COCc1cn(CC[C@@H]2CC[C@H](NC(=O)Nc3ccccc3)[C@@H](CO)O2)nn1
-6.7[16.7 µM]	-20.4	Cc1noc(C)c1NC(=O)N(C)C[C@@H]1Oc2ccc(NC(=O)NC(C)C)cc2C(=O)N([C@H](C)CO)C[C@H]1C
15.2[16.7 µM]	-7.7	C/C=C/c1ccc2c(c1)O[C@H](CN(C)C(=O)C1CC1)[C@H](C)CN([C@@H](C)CO)S2(=O)=O
-7.4[16.7 µM]	0.2	C[C@@H]1CN([C@H](C)CO)C(=O)c2cccc(NC(=O)c3ccc(-c4nccs4)cc3)c2O[C@H]1CN(C)S(=O)(=O)c1cn(C)cn1
-17.3[16.7 µM]	-2.2	C[C@@H]1CN([C@@H](C)CO)C(=O)c2cccc(NC(=O)Nc3ccccc3)c2O[C@H]1CN(C)Cc1ccc(Oc2ccccc2)cc1
39.7[16.7 µM]	14.5	COc1ccc(CN(C)C[C@H]2OCCCC[C@H](C)Oc3ccc(NS(=O)(=O)c4ccc(Cl)cc4)cc3C(=O)N([C@H](C)CO)C[C@H]2C)cc1
-61.7[16.7 µM]	-7.7	Cc1noc(C)c1NC(=O)Nc1ccc2c(c1)C(=O)N([C@H](C)CO)C[C@H](C)[C@@H](CN(C)Cc1ccncc1)OCCCC[C@@H](C)O2
11.4[16.7 µM]	-15.4	N#C[C@@H]1[C@H](c2ccc(C#Cc3cccc(F)c3)cc2)[C@@H](CO)N1C(=O)C1CCC1
6.4[16.7 µM]	-17.1	COCCNC(=O)C[C@H]1C=C[C@H](NC(=O)NC2CCCC2)[C@@H](CO)O1
-14.8[16.7 µM]	17.7	C[C@H]1CN([C@@H](C)CO)C(=O)c2cccc(NC(=O)Nc3ccccc3)c2O[C@H]1CN(C)C
10.3[16.7 µM]	-2.8	C[C@H](CO)N1C[C@H](C)[C@@H](CN(C)C)Oc2ncc(C#Cc3cccnc3)cc2C1=O
-44.8[16.7 µM]	13.2	C[C@@H]1CN([C@H](C)CO)C(=O)c2cc(-c3cccnc3)cnc2O[C@@H]1CN(C)C(=O)c1cccc(F)c1
-63.4[16.7 µM]	16.0	C[C@H]1CCCCO[C@H](CN(C)C(=O)c2ccccc2)[C@@H](C)CN([C@@H](C)CO)C(=O)c2cc(NC(=O)NC3CCCCC3)ccc2O1
3.7[16.7 µM]	12.0	C[C@@H]1CN([C@H](C)CO)C(=O)c2cc(-c3cncnc3)cnc2O[C@H]1CN(C)C(=O)c1cccc(F)c1

This is a subset; the hit share may differ from the screen's.
